Screening data (PubChem)
VACV mCherry inh – inhibitors of vaccinia virus infection (mCherry reporter signal); 310,000 compounds, 0.63% hits; Potency, µM (titrated, usually from 36.5 µM), without a hit: top-dose activity change, negative = inhibition, actives largely listed as inhibitors; Vaccinia virus mCherry reporter infection, fluorescence; about a quarter of the inactives have no number; active = well fitted inhibition curve with a large enough effect; inconclusive = small, poorly fitted or top-dose-only effect; inactive = no such curve, though single readings can be large or run the other way; tested in A549 cells; further: nearly all actives have a fitted effect of over 35% in size; inactives centre near -10
Vaccinia Venus – vaccinia inhibition (Venus reporter); AID 720580; Potency, µM (doses to about 36.5 µM), without a hit: at the top dose activity change, negative = inhibition, hits mostly inhibitors; 330,000 compounds, 0.46% hits; Vaccinia virus Venus reporter expression, fluorescence; active means well fitted inhibition curve with a large enough effect; inconclusive means small, poorly fitted or top-dose-only effect; inactive means no such curve, though single readings can be large or run the other way; tested in A549 cells; further: nearly all actives have a fitted effect of over 30% in size; inactives centre near -10
* = called active by the depositor; i = inactive; ? = inconclusive; . = no result given; [ ] = dose if it differs, or a comment. On the % scale 0 is the no-effect control and ±100 the full control effect; potency means the concentration at half of the fitted maximal effect.

| Molecule | Vaccinia Venus | VACV mCherry inh |
| --- | --- | --- |
| CC(=O)/C(=C/N(C)C)Sc1ccc(C)cc1 | -6.5% | . |
| CSc1nc(C2CC2)cc(-c2cccs2)c1C#N | -27.5% | -17.8% |
| CCOC(=O)COc1ccc(/C=C2\NC(=S)N(CC)C2=O)cc1 | -23.3% | i |
| CC(C)N1C(=O)CC(Nc2cccc3cccc(N)c23)C1=O (centres undefined) | 15.6% | 12.9% |
| O=C(CSc1nnc(NC(=O)CN2CCOCC2)s1)Nc1ccccc1 | -23.3% | . |
| OC(C#CCN1CCCCC1)(c1ccccc1)c1ccccc1 | -5.1% | -17.5% |
| O=C(N/N=C/C=C/c1ccccc1)c1cc(C2CC2)[nH]n1 | 1.2%[7.34 µM] | i[7.34 µM] |
| S=c1[nH]nc(COc2ccccc2)n1/N=C/c1ccccc1Cl | -18.7% | -12.6% |
| Cc1nc2scc(-c3cccs3)c2c(=O)n1N | -22.5% | 17.2% |
| COc1cccc(C2Nc3c(F)cc(Br)cc3C3C=CCC32)c1OC (centres undefined) | -6.3% | -13.3% |
| COc1ccc(/C=C(/NC(=O)c2ccco2)C(=O)NCc2ccco2)cc1OC | -9.9% | -9.4% |
| O=C(NCc1ccc2c(c1)OCO2)C1CC(=O)N(CCc2ccc(F)cc2)C1 (centres undefined) | -5.9% | -1.6% |
| C[C@@H]1CN(Cc2nc(-c3cnccn3)no2)C[C@H](C)O1 | -1.7% | i |
| Cc1csc(=O)n1CC(=O)OCC(=O)NCc1ccc(Cl)cc1Cl | -1.8% | -5.1% |
| CC(C)Cn1c(=O)c2sccc2n2c(CCCC(=O)N3CCC(N4CCCCC4)CC3)nnc12 | -4.5% | -23.9% |
| O=S1(=O)[C@H]2C[C@H](CO)O[C@@]2(CO)CN1Cc1ccc(-c2cccc(Cl)c2)cc1 | -17.3% | -7.8% |
| COc1ccc(C(=O)Nc2ccc(NC(=O)C3CC3)nc2)cc1 | -5.2% | i |
| CCOC(=O)Cn1c(=O)c2c(nc(N3CCCCC3)n2C)n(C)c1=O | -19.0% | i[1.46 µM] |
| CCCn1nnc2c(=O)oc3ccccc3c21 | -5.1% | i |
| Cc1ccc2c(c1)-c1c(ssc1=S)C(C)(C)N2C(=O)CN1C(=O)c2ccccc2C1=O | -13.4% | -22.0% |
| CC(=O)N1CCc2cc(CNS(=O)(=O)c3ccccc3C(F)(F)F)ccc21 | -18.2% | -11.5% |
| COc1ccc(N2C(=O)C3CCCN3C2c2cccc(F)c2)cc1Cl (centres undefined) | -5.3% | -9.5% |
| Cc1ccccc1NC(=O)Cc1nc(COC(=O)CSc2ccc(F)cc2)cs1 | -5.8% | i |
| O=C(CSC(=S)N1CCCC1)N(Cc1nnc(-c2ccccc2Cl)o1)C1CC1 | -12.3% | -16.2% |
| CN(Cc1ccccc1)C(=O)[C@@H]1CCCN1C(=O)[C@@H]1CCCN1C(=O)c1ccccc1 | -1.1% | 24.1% |
| O=C1C2C3CCC(CC3)C2C(=O)N1c1ccccc1 (centres undefined) | -1.3% | -0.7% |
| CCOc1ccc(NC(=O)c2ccco2)cc1 | -14.1% | -5.4% |
| Cc1ccc(S(=O)(=O)c2cn(C)c3cc(N4CCCC(C)C4)c(F)cc3c2=O)c(C)c1 (centres undefined) | -16.6% | -16.0% |
| CC(=O)Nc1cc([N+](=O)[O-])cc(NC(C)=O)c1NC(C)=O | -7.3% | 10.8% |
| Nc1c(C(=O)Nc2ccccc2Cl)c2ccccn2c1C(=O)c1ccc(Cl)cc1 | 1.5% | -5.7% |
| C[C@@H](C(=O)NCCCCCC(=O)O)n1nnc2ccccc2c1=O | 7.1% | -6.4% |
| CC(=O)NC1=NC(=O)/C(=C/c2cc(C)n(-c3cccc(C(=O)O)c3)c2C)S1 | 24.1% | -8.0% |
| COC(=O)c1ccccc1NC(=O)CSc1nc(-c2ccco2)cc(C(F)(F)F)n1 | -15.4% | -6.4% |
| CC(C)NC(=O)NC(=O)COC(=O)c1c2c(nc3ccccc13)CCC2 | -13.0% | -17.1% |
| CN1CCN(C(=O)c2cnn(-c3ccccc3)c2NC(=O)c2ccc(Br)cc2)CC1 | -9.5% | -9.9% |
| C[C@@H]1CN([C@H](C)CO)C(=O)c2cc(NS(=O)(=O)c3ccc(F)cc3)ccc2O[C@@H]1CN(C)Cc1ccc(Cl)c(Cl)c1 | 10µM* | ? |
| O=C(Cn1c(C(=O)O)cc2ccccc21)c1ccccc1 | -16.7% | i |
| Cc1cc(C)c2c(=O)cc(C(=O)Nc3sc4c(c3C(=O)NCC3CCCO3)CCCC4)oc2c1 (centres undefined) | -3.4% | 6.2% |
| OCCN1CCN(c2nc(-c3ccccc3)nc3c2oc2ccccc23)CC1 | ? | ? |
| O=C(CCC(=O)Nc1ccc(Br)cc1)N/N=C/c1cc([N+](=O)[O-])ccc1O | -16.2% | i |

5 consecutive entries out of the list so far, quoted:
| Molecule | Vaccinia Venus | VACV mCherry inh |
| --- | --- | --- |
| CC(=O)/C(=C/N(C)C)Sc1ccc(C)cc1 | -6.5% | . |
| CSc1nc(C2CC2)cc(-c2cccs2)c1C#N | -27.5% | -17.8% |
| CCOC(=O)COc1ccc(/C=C2\NC(=S)N(CC)C2=O)cc1 | -23.3% | i |
| CC(C)N1C(=O)CC(Nc2cccc3cccc(N)c23)C1=O (centres undefined) | 15.6% | 12.9% |
| O=C(CSc1nnc(NC(=O)CN2CCOCC2)s1)Nc1ccccc1 | -23.3% | . |

Further records follow.
| Molecule | Vaccinia Venus | VACV mCherry inh |
| --- | --- | --- |
| COCCCN(C(=O)c1cc2c(s1)CCCCC2)c1c(N)n(Cc2ccccc2)c(=O)[nH]c1=O | -16.6% | -14.0% |
| O=C(Nc1cccc(S(=O)(=O)N2CCCCCC2)c1)c1cncc(Br)c1 | -19.8% | ? |
| CC(c1ccco1)N(C(=O)c1ccc(S(=O)(=O)N2CCCCC2)cc1)c1ccccn1 (centres undefined) | -11.1% | -26.1% |
| CNC(=O)c1sc(SC)cc1-c1ccc(Cl)cc1 | ? | . |
| CN(CC(=O)NNC(=O)c1cccnc1)S(=O)(=O)c1cc(Cl)ccc1Cl | -5.0% | i |
| CC(C)c1csc(CN2CCC(C(=O)Nc3cccc(-c4ccco4)c3)CC2)n1 | -23.6% | i |
| O=C(Nc1ccccc1Cl)c1cc(C2CCCCN2S(=O)(=O)c2ccc(F)cc2F)on1 (centres undefined) | -0.2% | 9.6% |
| Cc1ccc(C2(C(F)(F)F)NC(=O)N3CCCN=C3S2)cc1 (centres undefined) | -23.9% | -21.0% |
| CCC1CCCN1Cn1cnc2c([nH]c3ccccc32)c1=O (centres undefined) | 0.2% | -11.6% |
| COc1ccc2c(c1)c(C(C)=O)c(C)n2-c1ccccc1 | 0.5% | -9.6% |
| Cc1ccccc1NC(=O)C1C2CC/C=C\CCC21 (centres undefined) | -8.7% | 9.4% |
| CCCCN(C(=O)Cc1cccs1)c1nnc(-c2cccnc2)s1 | -7.5% | -16.1% |
| Nc1nonc1-c1nc2ccccc2n1CC(=O)N1CCN(c2ccc(F)cc2)CC1 | -6.3% | -13.7% |
| COc1ccc(/C(N)=N/OC(=O)Cc2ccc(OC)c(OC)c2)cc1 | -27.0% | -17.8% |
| CCCCn1c(-c2nn(C)c(C)c2Cl)n[nH]c1=S | -18.7% | . |
| O=C1NC(=O)/C(=C/c2ccccc2Cl)N1 | 0.6% | i |
| COC(=O)c1ccccc1NC(=O)Cn1c(=O)n(CCC(=O)NCc2ccccc2OC)c(=O)c2ccccc21 | -17.4% | -24.1% |
| Cc1csc2c(=O)n(CCO)c(=O)[nH]c12 | -15.2% | i |
| Cc1cccc(NC(=O)c2ccc3oc(=O)c(S(=O)(=O)c4ccc(F)cc4)cc3c2)c1C | -3.2% | -13.0% |
| COc1ccc(CCNC(=O)C(=O)NCC(c2ccc3c(c2)OCO3)N2CCOCC2)cc1 (centres undefined) | 3.8% | -10.2% |
| CCOc1ccc(S(=O)(=O)c2cn(C)c3ccccc3c2=O)cc1 | -7.8% | -14.9% |
| CCC(OC(=O)CN1C(=O)c2ccccc2C1=O)C(=O)NC1CCCC1 (centres undefined) | 0.2% | -8.5% |
| COc1ccc2c(c1)c(N=O)c(O)n2C | -12.8% | . |
| CCCCCc1c(C)[nH]c2nc3ccccc3n2c1=O | -12.6% | -24.6% |
| CC(C)(C)NC(=O)NC12CC3CC(CC(C3)C1)C2 | -14.4% | i |
| CC1(C)Cc2c(sc3ncn4nc(-c5ccco5)nc4c23)CO1 | -27.5% | i |
| O=C(COC(=O)c1ccc2c(c1)C(=O)N(Cc1ccco1)C2=O)NCC(F)(F)F | -10.1% | i |
| CC(C)(C)OC(=O)N1CCC(C(=O)Nc2cccc(C(=O)N3CCCCC3)c2)CC1 | -5.4% | -10.0% |
| O=C(O)Cc1ccc(N=Cc2c(O)ccc3ccccc23)cc1 | -7.8% | -14.2% |
| CSc1ccccc1C(=O)Nc1cc(C)cc(C)c1 | -15.9% | -0.5% |
| CN(C(=O)CSc1nnc(Cc2cccc3ccccc23)n1N)C1CCS(=O)(=O)C1 (centres undefined) | -15.0% | i |
| COC(=O)C1=C(C)Nc2nnnn2C1c1ccc(Cl)cc1Cl (centres undefined) | ? | . |
| COc1ccc(CNc2nc(-c3ccccc3)nc3ccccc23)cc1OC | -17.5% | i |
| COc1cccc(CNC(=O)C2CCN(S(=O)(=O)c3ccc(F)cc3)CC2)c1 | -6.4% | -5.5% |
| CC1CCC(O)(C(C(=O)O)c2ccccc2)CC1 (centres undefined) | 0.2% | i |
| O=[N+]([O-])c1ccccc1/C=N\Nc1nccs1 | -2.5% | -4.6% |
| CCCCCn1cnc2c(sc3nc4c(cc32)CSC(C)(C)C4)c1=O | 7.0% | -13.6% |
| CCOc1ccc(-c2cc3nc(C4CCN(C(=O)OC(C)(C)C)CC4)c(C(=O)Nc4cccc(CC)c4)cn3n2)cc1 | -12.8% | -7.7% |
| O=C(c1cc2ccc3cccnc3c2[nH]1)N1CCN(c2ccc(Cl)cc2)CC1 | -7.1% | -10.6% |
| CCOc1ccc(OCC(=O)NCCS(=O)(=O)N2CCN(c3ccccc3)CC2)cc1 | -15.7% | -10.4% |
| O=S1(=O)CC(N2CCN(CCO)CC2)CN1Cc1ccc(F)cc1 (centres undefined) | -1.5% | i |
| CN1C(=O)c2ccc(NC(=O)c3c(F)c(F)c(F)c(F)c3F)cc2C1=O | -0.3% | -4.2% |
| CCOCCn1c(SCCCc2ccccc2)nc2c1c(=O)[nH]c(=O)n2C | -16.6% | -21.7% |
| O=S(=O)(NCCC1=CCCCC1)c1ccccc1Br | -9.5% | -10.4% |
| COC(=O)c1sccc1NC(=O)Cc1ccc(OC)cc1 | -1.6% | 0.7% |
| COc1cc2ccccc2cc1C(=O)Nc1ccc(Cl)c(-c2nc3ccccc3o2)c1 | -24.1% | i |
| COc1ccccc1CN1CCCC(C(=O)N(C)Cc2ccccc2)C1 (centres undefined) | -2.8% | -9.1% |
| C/C(=N\N=C\c1ccccc1F)c1nnn(-c2nonc2N)c1C | -18.9% | -2.6% |
| O=C(COC(=O)C1CCN(C(=O)Nc2ccccc2)CC1)NCC(F)(F)F | -6.5% | -5.2% |
| CC1(C)CC(C2N3CC4(C)CN2CC(C)(C3)C4=O)CCO1 (centres undefined) | -9.7% | -12.1% |
| C[C@H]1CN([C@@H](C)CO)C(=O)c2cc(NC(=O)C3CCCCC3)ccc2O[C@H]1CN(C)Cc1ccc(-c2ccccc2)cc1 | ? | -19.0% |
| O=C(Nc1nc2ccccc2[nH]1)c1cc2ccccc2o1 | -22.8% | ? |
| CCCCCCSc1ccc([C@H]2N[C@@](Cc3ccccc3)(C(=O)OC)[C@H]3C(=O)N(C)C(=O)[C@@H]23)cc1 | -28.8% | i |
| Cc1ccccc1-c1nc2ccccc2c(=O)o1 | -13.7% | -20.6% |
| Nn1c(SCC(=O)N2CCN(S(=O)(=O)c3ccc(Cl)cc3)CC2)nnc1-c1cccs1 | ? | -13.6% |
| CC(C)(C)SCCNC(=O)CSc1ccccc1 | -12.0% | -16.3% |

The list goes on.
| Molecule | Vaccinia Venus | VACV mCherry inh |
| --- | --- | --- |
| Nc1c(C(=O)NCc2ccco2)c2nc3ccccc3nc2n1Cc1ccccc1 | -29.7% | -18.6% |
| Cc1cc2nc(C(C)(C)C)c(Cc3ccccc3C(F)(F)F)n2c(C)c1Br | 9.3% | 16.3% |
| COc1ccc(S(=O)(=O)Cc2ccc(C(=O)N3CCN(c4ccccc4)CC3)o2)cc1 | -2.9% | 2.1% |
| CCOC(=O)c1cccc(NC(=O)C2CCCN(S(=O)(=O)c3c(C)nn(C)c3C)C2)c1 (centres undefined) | -7.3% | i |
| COc1ccc(C/C(N)=N/OC(=O)Cc2ccc(OC)c(OC)c2)cc1 | -16.8% | -12.1% |
| COc1ccc(C(=O)Nc2nc(CC(=O)NCCc3ccccc3)cs2)cc1 | -5.3% | -12.0% |
| Cc1ccc(C(OC(=O)c2ccco2)C(=O)NC2CCCC2)cc1 (centres undefined) | -0.1% | -8.6% |
| COCCNC(=O)Cn1cnc([N+](=O)[O-])n1 | -7.4% | -1.2% |
| CCOC(=O)/C=C1\SCC(=O)N1Cc1nnc(-c2ccccc2Br)o1 | 8.3% | -7.3% |
| Cn1c(=O)c2c(ncn2CC(=O)N2CCN(c3ccc(F)cc3)CC2)n(C)c1=O | -23.6% | -24.2% |
| CCOc1ccc(N2C(=O)CC(N(CCc3ccccc3)C(=O)/C=C/C(=O)O)C2=O)cc1 (centres undefined) | 0.6% | 5.0% |
